Mtb H37Rv = Mycobacterium tuberculosis H37Rv growth inhibition, cell based, confirmatory dose response (AID 1949) | 1.6% of 100,000 active | most inactive calls were filed without a number and no value below 0 was filed | M. tuberculosis H37Rv growth inhibition | inhibition, % at 10 µg/mL, or IC50 in µg/mL where a hit was titrated;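 active means confirmed in a dose series; inconclusive means about 50% or more but not retested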;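 further: bacteria grown 7 days with compound before Alamar blue readout; 0% = untreated bacteria and 100% = reference antibiotic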
* marks the source's active call; other numbers are inactive results; i = inactive; ? = inconclusive. An excerpt, so the mix of outcomes need not match the whole.

smiles	Mtb H37Rv
CCOc1ccc(-n2cccc2C=O)cc1	5%
COc1ccc(Cl)cc1NC(=O)C(=O)NC1CC1	i
Cc1cccc(C(=O)Nc2ccc(I)cc2C(=O)N2CCCCC2C)c1 (stereo unspecified)	1%
COC(=O)c1ccc(CN(c2ccccn2)S(=O)(=O)c2ccccc2)cc1	3%
CC(C)CC(=O)NC(c1ccc(Cl)cc1)c1c(O)ccc2ccccc12 (stereo unspecified)	i
Cc1nnc(SCCC(=O)Nc2ccccc2)s1	17%
CCc1ccc(C(=O)COC(=O)CNC(=O)c2ccc(C)cc2)cc1	i
O=C(COc1ccc(C(=O)NC2CCCCC2)cc1)Nc1ccc(Cl)cc1	i
COc1ccccc1N1CCN(C(=O)C(C)Oc2cccc(Cl)c2)CC1 (stereo unspecified)	i
CCOC(=O)N1CCN(C(=O)c2cc(Cl)ccc2NC(=O)c2ccco2)CC1	i
COc1cc(NC(=O)COc2ccc(C(C)C)cc2Br)cc(OC)c1	i
O=C(NC(Cc1ccccc1)C(=O)NCc1ccccn1)c1ccccc1 (stereo unspecified)	2%

Looked up above.
CCOc1ccc(-n2cccc2C=O)cc1 in Mtb H37Rv = 5%
COC(=O)c1ccc(CN(c2ccccn2)S(=O)(=O)c2ccccc2)cc1 in Mtb H37Rv = 3%

Later entries
smiles	Mtb H37Rv
COCc1c(Br)c(C)nc(OCC(=O)O)c1C#N	i
C=CCNCCOc1ccc(OCc2ccccc2)cc1	i
CCOC(=O)c1sc(NC(=O)c2c(-c3ccccc3Cl)noc2C)nc1C	i
Cc1cc(C(=O)Nc2nnc(C(F)(F)F)s2)cs1	18%
CCn1c(SCC(=O)Nc2ccc(C)c(C)c2)nnc1C(C)NC(=O)Cc1ccc(OC)cc1 (stereo unspecified)	i
Cc1ccc(OCCN(C)C2CCCCC2)c(C)c1	i
COC(=O)c1ccc(N2CCN(C)CC2)c(NC(=O)c2cc(Br)ccc2OC)c1	26%
CCOC(=O)c1ccc(N2C(=O)CC(NCCc3ccc(Cl)cc3Cl)C2=O)cc1 (stereo unspecified)	i
O=C(c1ccc2c(c1)OCO2)N(c1ccccc1)C1C=CS(=O)(=O)C1 (stereo unspecified)	i
COc1cc([N+](=O)[O-])ccc1NC(=O)c1cccc(-c2cc3ccccc3oc2=O)c1	i
CCCCn1c(-c2ccc(F)cc2)n[nH]c1=S	i
CCCCc1ccc(NS(=O)(=O)c2ccc(OC)c(Br)c2)cc1	i

Exported with each value named: four of the compounds above.
CCOC(=O)c1ccc(N2C(=O)CC(NCCc3ccc(Cl)cc3Cl)C2=O)cc1 (stereo unspecified)
  Mtb H37Rv: i

O=C(c1ccc2c(c1)OCO2)N(c1ccccc1)C1C=CS(=O)(=O)C1 (stereo unspecified)
  Mtb H37Rv: i

COc1cc([N+](=O)[O-])ccc1NC(=O)c1cccc(-c2cc3ccccc3oc2=O)c1
  Mtb H37Rv: i

CCCCn1c(-c2ccc(F)cc2)n[nH]c1=S
  Mtb H37Rv: i

Next section
smiles	Mtb H37Rv
C=CCNCCOCCOc1ccc(C(C)(C)C)cc1C	1%
CCCOc1ccc(N2C(=O)CC(Nc3ccc(C(=O)OC)cc3)C2=O)cc1 (stereo unspecified)	i
Cc1sc(NC(=O)Cc2cccc3ccccc23)c(C(N)=O)c1C	26%
COC(=O)c1ccc2c(=O)n(CCc3cnc[nH]3)c(=S)[nH]c2c1	i
COc1ccc(C(=O)Nc2ccc(S(=O)(=O)N3CCCCCC3)cc2)cc1	12%
Cc1ccccc1CSCCNC(=S)Nc1ccccc1	?
COc1cc(NC(=O)CCn2cnc3ccccc3c2=O)c(OC)cc1Cl	i
CCN(CC)CCCNc1nnc(C)c(=O)[nH]1	i
C=CCn1c(SCC(=O)Nc2cccc(SC)c2)nnc1-c1ccc(Cl)cc1	i
CC(C)C(=O)NC(=S)Nc1ccc(F)c(Cl)c1	i
COc1ccccc1CCNC1CC(=O)N(c2ccc(-c3nc4ccc(C)cc4s3)cc2)C1=O (stereo unspecified)	i
CCCCOc1ccc(C(=O)Nc2ccncc2)cc1	?
Cc1c(C(=O)O)cccc1-c1ccc(/C=C/[N+](=O)[O-])o1	2%
O=c1c2ccccc2[nH]c2ccc(F)cc12	2%
CC1(C)CC(=O)C2=C(C1)NC1=C(C(=O)c3ccccc31)C2c1ccc(O)cc1 (stereo unspecified)	5%
Cn1c2ccccc2c2nnc(SCC(=O)Nc3ccc(Cl)cc3)nc21	2%
Cc1sc2ncnc(N3CCN(C4CCCCC4)CC3)c2c1C	i
O=C(O)CC(C(=O)O)c1ccc([N+](=O)[O-])cc1 (stereo unspecified)	i
O=C(COc1cc(Cl)c(Cl)cc1Cl)Nc1ccncc1	i
CC(C)(C)NS(=O)(=O)c1ccc(NC(=O)c2sc3ccccc3c2Cl)cc1	0%
COC(=O)c1cc(OC)c(OC)cc1NC(=O)CCc1ccccc1	i
CC(C)Oc1ccc(Cc2n[nH]c(=S)n2-c2ccccc2)cc1Cl	7%
CCn1c2ccc(F)cc2c2nc3ccccc3nc21	6.9µg/mL*
Cc1cccc(NC(=S)Nc2ccc(Cl)c(Cl)c2)c1	?
CSc1ccc(S(=O)(=O)Nc2c(C)cccc2C)cc1	i
CCC(CC)C(=O)Nc1cc(Cl)cc(Cl)c1	i
CCOc1ccc(N/C=C(\C#N)c2nc3ccccc3[nH]2)cc1	i
CN1C(=O)c2ccc(C(=O)NCc3ccc4c(c3)OCO4)cc2C1=O	i
O=S(=O)(c1cccc2cccnc12)N1CCc2ccccc2C1	i
COc1c(Cl)cc(Cl)cc1C(=O)Nc1ccccc1I	i
CNCCCCOc1ccc2ccccc2c1	i
COc1ccc(C2NC(=O)NC(C)=C2C(=O)OC(C)(C)C)c(I)c1O (stereo unspecified)	i
CCN(CC)CCNC(=O)c1cccc(Cl)c1	i
CCc1cccc2c(C=O)cn(CC(N)=O)c12	i
COC(=O)C1=CN(c2cccc(Cl)c2)C=C(C(=O)OC)C1c1cccc(OC)c1	2%
O=C(Oc1ccc(-c2ccccc2)cc1)N1CCOCC1	3%
CCOC(=O)c1ccc(-n2c(-c3cccc(F)c3)nn(C3CC(=O)N(C)C3=O)c2=S)cc1 (stereo unspecified)	1%
CN(C1CC(C)(C)NC(C)(C)C1)S(=O)(=O)CC12CCC(CC1=O)C2(C)C (stereo unspecified)	i
Cc1ccccc1OCC(=O)Oc1ccc(N2C(=O)CCC2=O)cc1	i
COc1ccc(C(=O)NCC(C)(C)CNC(=O)c2ccc(OC)cc2)cc1	4%
Cc1ccccc1CSCCNC(=O)c1ccc(Cl)cc1Cl	1%
CC(NC(=O)CN(Cc1ccc(Cl)cc1)S(=O)(=O)c1ccccc1)c1ccccc1 (stereo unspecified)	i
O=C(c1ccccc1Cl)N1CCC(C(=O)N2CCN(c3ccccc3F)CC2)CC1	i
CCC(Sc1nc(N)cc(=O)[nH]1)C(=O)Nc1ccc2ccccc2c1 (stereo unspecified)	18%
COC(=O)c1cc(NC(=S)NC(=O)c2ccc(C)cc2C)cc(C(=O)OC)c1	i
COc1ccc(S(=O)(=O)Nc2c(C)n(C)n(-c3ccccc3)c2=O)c(Cl)c1Cl	i
NC(=O)c1ccc(CSc2ccc(Cl)cc2)cc1	i
COc1ccc(N2C(=O)C(NC(=O)c3ccccc3)(C(F)(F)F)C3=C2CC(C)(C)CC3=O)cc1 (stereo unspecified)	i
CCN(CC)c1ccc(-n2nc3cc(C)c(NC(=O)COc4ccc([N+](=O)[O-])cc4)cc3n2)cc1	i
O=C(NCC1CCCO1)c1cccc(NC(=O)c2ccc(Br)cc2)c1 (stereo unspecified)	i
COc1ccc(C2(CNC(=O)c3cccs3)CCOCC2)cc1	i
CC(C)Nc1nc(NC(C)C)nc(N(C#N)C(=N)N)n1	i
CC(=O)Nc1nnc(SCC(=O)Nc2ccc(Cl)cc2)s1	i
CC(C)c1ccc(O)c(NC(=O)CCc2ccccc2)c1	8%
Cc1c(NC(=O)COc2cccc3ccccc23)cccc1C(=O)O	4%
C=CCn1c(SCC(=O)Nc2c(C)cc(I)cc2C)nnc1-c1ccco1	i
CN(CCCn1c(=S)[nH]c2ccccc2c1=O)Cc1ccccc1	i
O=C(Nc1ccc(S(=O)(=O)N2CCOCC2)cc1)c1cccs1	i
Clc1ccc(OCCn2ccnc2)c2ccccc12	4µg/mL*
COc1cc(C#N)ccc1OCc1nc(-c2ccc(Cl)cc2)no1	i

(more compounds)
smiles	Mtb H37Rv
COCCNCCCOc1ccc(Cl)cc1C(C)(C)C	28%
CCN(CC)c1ccc(NC(=O)c2cccnc2)c(C)c1	i
COCCN1C(=O)C(O)=C(C(=O)c2ccco2)C1c1ccc(Cl)c(Cl)c1 (stereo unspecified)	2%
CS(=O)(=O)N(Cc1ccccc1)c1ccccc1C(=O)Nc1ccccc1-c1ccccc1	1%
Cc1ccc(-c2nc(NCc3ccco3)c3ccccc3n2)cc1	1%
COc1ccccc1C(=O)Nc1sc(C)cc1C(=O)O	1%
O=C(COc1ccc(S(=O)(=O)NCCc2ccccc2)cc1)NC1CCCCC1	i
Cc1ccc(NC(=S)NC(=O)c2cccc3c(Br)cccc23)cc1C	i
COc1ccc(-c2cc(=O)oc3cc(OCC(=O)C(C)(C)C)ccc23)cc1	i
O=C(CN1CCCCC1)NCc1ccccc1	i
N#Cc1c(NC(=O)COc2ccc(C(=O)NCc3ccccc3)cc2)sc2c1CCC2	i
CCn1c(SCC(=O)O)nnc1-c1cc(OC)c(OC)c(OC)c1	i
COC(=O)c1ccccc1OC(=O)c1ccc(Cl)cc1	i
COc1ccc(C2(C(=O)NCCN3CCOCC3)CCOCC2)cc1	i
CCCN(CCC)S(=O)(=O)c1ccc(NS(=O)(=O)Cc2ccccc2)cc1	i
Cc1nc(-c2cccc(NC(=O)C(C)Oc3ccccc3)c2)cs1 (stereo unspecified)	1%
N#Cc1ccc(C(=O)Nc2ccc(Cc3ccncc3)cc2)c(F)c1	i
CC(C)(C)NC(=O)C(=O)c1c[nH]c2ccccc12	i
O=S(=O)(c1ccccc1)N(CC(O)CN1CCCC1)c1cccc2ccccc12 (stereo unspecified)	3%
O=C(Cc1ccccc1)Nc1nnc(-c2ccc(F)cc2Cl)s1	i
COc1ccc(OC)c(C(C)NC(=O)c2cccc(C)c2)c1 (stereo unspecified)	i
COc1ccc(C(C)(C)C)cc1NC(=O)c1nc2nc(C)cc(C(F)F)n2n1	i
CC(C)c1ccc(OCc2nnc(SCC(=O)Nc3cccc(C(F)(F)F)c3)n2C)cc1	2%
COC(=O)C1=C(C)Nc2c(c(=O)n(C)c(=O)n2C)C1c1cccc(Cl)c1Cl (stereo unspecified)	i
CCN1CCN(CC(O)COCc2ccccc2)CC1 (stereo unspecified)	i
COc1ccc2cc(-c3nn(-c4ccccc4)cc3C#N)ccc2c1	i
O=C(Nc1ccc2c(c1)OCCO2)C1CCN(C(=O)c2ccc(F)cc2)CC1	i
O=C(NNC(=S)Nc1ccc(Cl)cc1Cl)C1CC1	i
CC(C)N1CCN(Cc2ccccc2C(F)(F)F)CC1	i
CSc1ccccc1NC(=O)c1ccc(C)cc1	i
CCCC(=O)Nc1ccc(Cl)c(NC(=O)CSc2ccc(Cl)cc2)c1	i
CC1CC2(CCCCC2)N(C(=O)c2ccccc2)Cc2ccccc21 (stereo unspecified)	i
Cn1c(=S)c2c(c3c(N)ncnc31)CCCC2	i
CCOC(=O)c1cc(-c2ccccc2)sc1NC(=O)C1CCCCC1	i
CCCOc1ccc(N2CC(C(=O)Nc3ccc(F)cc3)CC2=O)cc1 (stereo unspecified)	i
COc1ccc2c(c1)c(=O)oc1c(C)c(OCC(C)=O)ccc12	4%
COCCN1C(=O)C(O)=C(C(=O)c2ccco2)C1c1cccc(Cl)c1 (stereo unspecified)	2%
CCOc1ccc(NC(=O)C2CCN(S(=O)(=O)CC)CC2)cc1	i
Cc1cccc(NC(=O)NCCN2CCN(c3ccccc3)CC2)c1C	i
CCOC(=O)c1c(NC(=O)c2nn3cccnc3c2Cl)sc(C)c1C	i
O=C(Cc1cccs1)NC1CCC(c2ccccc2)CC1 (stereo unspecified)	i
O=C(Nc1ccccc1F)c1cc(-c2ccccc2Cl)nc2ccccc12	i
Cc1ccc(CC(=O)NCCN2CCOCC2)cc1	i
O=C(c1sc2ccccc2c1Cl)N1CCN(c2ncccn2)CC1	i
COC(=O)c1sc2cc(NC(=S)NC(C)c3ccc4c(c3)OCO4)ccc2c1Cl (stereo unspecified)	i
COCCNCCCCSc1ccc(Cl)cc1	i
Cc1c(C(=O)Nc2ccccc2C(=O)N2CCCC2)cccc1[N+](=O)[O-]	i
COC(=O)c1cc(C)sc1NC(=S)NCCCc1ccccc1	45%
Brc1ccc(C2=Nc3cccc4cccc(c34)N2)o1	2%
CCOc1ccc(-c2c(=O)n(O)c3ccccc3[n+]2[O-])cc1	3%
CCc1ccc(CN2CCN(CCCc3ccccc3)CC2)cc1	i
C#CCOc1nc2c(c(=O)n(C)c(=O)n2C)n1Cc1ccc(Cl)cc1	i
CC1(C)C2CCC1(C)C(NC(=O)c1ccc(F)cc1)C2 (stereo unspecified)	i
COc1ccc(C(=O)N2CCN(S(=O)(=O)c3c(C)cc(C)cc3C)CC2)cc1OC	i

Bioassay records deposited in PubChem by Southern Research Institute.
